ID4 binder: binders of human ID4 protein, primary screen, biochemical, small molecule microarray, single point; Flag-ID4 binding, fluorescence F/B; calls only; 31,000 compounds, 1.2% hits;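 active = spot signal over background at p below 0.07 in all four prints; compounds were printed on slides so no solution concentration is given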;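 note: a binder raises fluorescence above local background on the spot; about 2 pmol printed per array spot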
Target sequence (P47928 whole entry, looked up): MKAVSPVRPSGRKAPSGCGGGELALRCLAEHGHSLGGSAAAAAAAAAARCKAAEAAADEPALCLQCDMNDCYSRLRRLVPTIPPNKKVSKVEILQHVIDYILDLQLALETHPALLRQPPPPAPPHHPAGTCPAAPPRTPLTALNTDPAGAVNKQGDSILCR
c-Myc SMM: binders of human c-Myc, primary screen, biochemical, small molecule microarray, anti-His fluorescence; His-c-Myc binding; calls only; 17,000 compounds, 1.5% hits; Myc proto-oncogene protein (Homo sapiens), P01106;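 active = spot fluorescence over background with P-value below 7% in all four replicate spots, showing protein binding; compounds were printed on slides so no solution concentration is given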;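 note: score is binary with 100 for all four spots passing and 0 otherwise; about 2 pmol printed per array spot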
mut p53 SMM: binders of human mutant p53, primary screen, biochemical, small molecule microarray, anti-GST fluorescence; small molecule microarray binding; 17,000 compounds, 0.4% hits; calls only;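 active = compounds whose four printed spots each glow above background more than chance allows, each with a p-value under 7%; compounds were printed on slides so no solution concentration is given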;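 note: about 2 pmol printed per array spot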
STAT3 binder: STAT3 binders, primary screen, biochemical, small molecule microarray, single point, set 2; His-STAT3 binding, anti-His fluorescence; calls only; 17,000 compounds, 0.2% hits;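 active = compounds whose four printed spots each show fluorescence over background unusually high for their array block, chance value under 7%; compounds were printed on slides so no solution concentration is given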;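 note: about 2 pmol printed per array spot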
Target sequence (P40763 whole entry, looked up): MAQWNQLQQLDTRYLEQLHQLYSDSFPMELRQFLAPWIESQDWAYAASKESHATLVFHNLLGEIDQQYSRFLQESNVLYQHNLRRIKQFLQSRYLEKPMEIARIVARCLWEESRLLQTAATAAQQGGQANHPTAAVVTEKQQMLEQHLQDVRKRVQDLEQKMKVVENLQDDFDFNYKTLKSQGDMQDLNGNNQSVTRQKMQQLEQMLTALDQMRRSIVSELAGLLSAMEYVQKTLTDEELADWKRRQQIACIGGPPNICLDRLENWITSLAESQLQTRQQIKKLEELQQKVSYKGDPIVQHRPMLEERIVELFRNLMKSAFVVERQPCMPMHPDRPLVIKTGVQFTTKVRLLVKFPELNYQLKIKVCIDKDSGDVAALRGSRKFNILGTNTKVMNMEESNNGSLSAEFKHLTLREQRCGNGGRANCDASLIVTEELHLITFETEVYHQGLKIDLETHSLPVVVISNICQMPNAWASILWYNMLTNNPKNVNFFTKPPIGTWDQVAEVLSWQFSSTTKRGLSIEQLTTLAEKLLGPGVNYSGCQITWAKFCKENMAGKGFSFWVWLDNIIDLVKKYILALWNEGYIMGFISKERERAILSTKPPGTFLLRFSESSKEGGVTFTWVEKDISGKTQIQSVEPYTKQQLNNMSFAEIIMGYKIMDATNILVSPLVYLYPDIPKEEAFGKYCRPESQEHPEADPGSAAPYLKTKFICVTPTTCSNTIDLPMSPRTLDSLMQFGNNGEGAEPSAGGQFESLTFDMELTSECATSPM
Calls only; i = inactive; . = not tested or not shown; + = active, no number. An excerpt (hit frequency here may not be typical).

SMILES | ID4 binder | c-Myc SMM | mut p53 SMM | STAT3 binder
Cc1ccc(-c2nc(SC(CC(=O)O)c3ccccc3)n[nH]2)cc1 (configuration not stated) | i | i | i | i
C[C@@H]1CN([C@H](C)CO)C(=O)Cc2cc(NS(=O)(=O)c3ccccc3)ccc2O[C@@H]1CN(C)C(=O)Nc1cccc2ccccc12 | i | i | i | i
C[C@@H]1CN([C@@H](C)CO)C(=O)c2cccc(N(C)C)c2O[C@H]1CN(C)C(=O)Nc1cccc2ccccc12 | i | i | i | i
Cc1cc(N(CC(N)=O)S(C)(=O)=O)ccc1Br | i | i | i | i
COc1ccc(C#Cc2ccc3c(c2)[C@]2(C(=O)N3)[C@H](C(=O)N3CCCCCCC3)[C@H]3C(=O)O[C@H](c4ccccc4)[C@H](c4ccccc4)N3[C@@H]2c2ccc(O)cc2)cc1 | i | i | i | i
C[C@H](CO)N1C[C@H](C)[C@H](CN(C)S(=O)(=O)c2cn(C)cn2)Oc2ncc(/C=C/c3ccccc3)cc2C1=O | i | i | i | i
COc1ccc(CN(C)C[C@@H]2Oc3ccc(NC(=O)Nc4c(C)noc4C)cc3C(=O)N([C@@H](C)CO)C[C@H]2C)cc1 | . | i | i | i
COc1ccccc1NC(=O)Cn1c(=O)oc2ccccc21 | i | i | i | i
COc1ccc(CN(C)C[C@@H]2Oc3ccc(NC(=O)C4CC4)cc3CC(=O)N([C@@H](C)CO)C[C@H]2C)cc1 | i | i | i | i
C[C@H](CO)N1C[C@H](C)[C@H](CN(C)Cc2ccncc2)Oc2c(NC(=O)Nc3ccc(C(F)(F)F)cc3)cccc2C1=O | i | i | i | i
Cc1noc(C)c1NC(=O)N(C)C[C@@H]1Oc2ccc(NC(=O)NC3CCCCC3)cc2C(=O)N([C@@H](C)CO)C[C@@H]1C | i | i | i | i
C[C@H]1CN([C@@H](C)CO)C(=O)c2cccc(NS(=O)(=O)c3ccc(Cl)cc3)c2O[C@@H]1CN(C)C(=O)Nc1ccc(C(F)(F)F)cc1 | i | i | i | i
C[C@@H]1CN([C@@H](C)CO)C(=O)c2cccc(NC(=O)C3CC3)c2O[C@H]1CN(C)C | i | i | i | i
C[C@H](CO)N1C[C@H](C)[C@H](CN(C)C(=O)Nc2ccc(F)cc2)Oc2ncc(-c3ccc(F)cc3)cc2C1=O | i | i | i | i
CC1=CC(=O)C2C(C)(C)CC(O)CC2(C)C1(O)CO (configuration not stated) | i | i | i | i
C[C@H](CO)N1C[C@H](C)[C@@H](CN(C)C(=O)Nc2cccc3ccccc23)Oc2ccc(NC(=O)CCC(F)(F)F)cc2CC1=O | i | i | i | i
O=C(CSc1ncccc1C(=O)O)c1cccc([N+](=O)[O-])c1 | i | + | i | i
Cc1ccccc1-n1nnnc1C(c1ccccc1)N(C)Cc1cccc([N+](=O)[O-])c1 (configuration not stated) | i | i | i | i
C[C@@H]1CN([C@@H](C)CO)C(=O)Cc2cc(NC(=O)Cn3cnnn3)ccc2O[C@@H]1CN(C)C(=O)Nc1cccc2ccccc12 | i | i | i | i
O=C(CSc1nc2ccccc2s1)c1cc2ccccc2o1 | i | i | i | i

Overlap with the part before: 4 entries, followed by the next part.
SMILES | ID4 binder | c-Myc SMM | mut p53 SMM | STAT3 binder
O=C(CSc1ncccc1C(=O)O)c1cccc([N+](=O)[O-])c1 | i | + | i | i
Cc1ccccc1-n1nnnc1C(c1ccccc1)N(C)Cc1cccc([N+](=O)[O-])c1 (configuration not stated) | i | i | i | i
C[C@@H]1CN([C@@H](C)CO)C(=O)Cc2cc(NC(=O)Cn3cnnn3)ccc2O[C@@H]1CN(C)C(=O)Nc1cccc2ccccc12 | i | i | i | i
O=C(CSc1nc2ccccc2s1)c1cc2ccccc2o1 | i | i | i | i
O=S(=O)(NCc1nc(-c2ccccc2)no1)c1ccc(F)cc1 | i | i | i | i
C[C@@H]1CN([C@@H](C)CO)C(=O)c2cc(NS(C)(=O)=O)ccc2O[C@@H](C)CCCCO[C@@H]1CN(C)C(=O)Nc1ccccc1 | + | i | i | i
COC(=O)C[C@H]1O[C@@]2(C[C@@H]1[Si](C)(C)C)C(=O)N(C)c1ccccc12 | i | i | i | i
C[C@@H]1CCCCO[C@@H](CN(C)C(=O)Nc2ccccc2)[C@@H](C)CN([C@H](C)CO)C(=O)c2cc(NS(C)(=O)=O)ccc2O1 | i | i | i | i
C[C@H]1CN([C@@H](C)CO)C(=O)c2cccc(NC(=O)C3CCOCC3)c2O[C@H]1CN(C)Cc1ccncc1 | i | i | i | i
C[C@H](CO)N1C[C@H](C)[C@H](CN(C)C(=O)NC2CCCCC2)Oc2ccc(NS(=O)(=O)c3cccs3)cc2C1=O | i | i | i | i
C[C@@H]1CN([C@@H](C)CO)C(=O)c2cc(NC(=O)NC3CCCCC3)ccc2O[C@H]1CN(C)S(=O)(=O)c1ccccc1 | i | i | i | i
Cc1ccccc1NC(=O)COc1ccc(C)c([N+](=O)[O-])c1 | i | i | i | i
C[C@H](CO)N1C[C@H](C)[C@@H](CN(C)Cc2ccncc2)Oc2ccc(NC(=O)CCCN(C)C)cc2C1=O | i | i | i | i
COc1ccc(S(=O)(=O)N(C)C[C@@H]2Oc3c(NC(=O)c4nc5ccccc5s4)cccc3C(=O)N([C@H](C)CO)C[C@H]2C)cc1 | i | i | i | i
C=C[C@H]1[C@H](O[C@@H]2O[C@H](CO)[C@@H](O)[C@H](O)[C@H]2O)OC=C(C(=O)OC)[C@H]1C[C@@H]1N[C@H](C(=O)O)Cc2c1[nH]c1ccccc21 | i | i | i | i
CCCN(C)C[C@H]1OCc2cnnn2CCCC(=O)N([C@@H](C)CO)C[C@@H]1C | i | i | i | i
CC(C)C(NC=O)C(=O)OCC(O)C(O)C(O)C(O)COC(=O)C(NC=O)C(C)C (configuration not stated) | . | i | i | i
COc1ccc(CN(C)C[C@@H]2Oc3c(NS(C)(=O)=O)cccc3C(=O)N([C@@H](C)CO)C[C@@H]2C)cc1 | i | i | i | i
C[C@@H]1CN([C@H](C)CO)C(=O)c2cc(NC(=O)Cc3ccccc3)ccc2O[C@@H](C)CCCCO[C@H]1CN(C)C | i | i | i | i
NCCCCCCNC(=O)[C@H]1C[C@H]2C(=O)N[C@@H](Cc3ccccc3)C(=O)N2[C@H]1c1cccc(OCCO)c1 | + | i | i | i
Cc1ccc(S(=O)(=O)N(C)C[C@H]2OCCCC[C@@H](C)Oc3ccc(NC(=O)Nc4ccc5c(c4)OCO5)cc3C(=O)N([C@@H](C)CO)C[C@H]2C)cc1 | . | i | i | i
C[C@@H]1CCCCO[C@H](CN(C)C(=O)c2ccccc2)[C@@H](C)CN([C@@H](C)CO)C(=O)c2cc(NC(=O)Nc3ccc(F)cc3)ccc2O1 | i | i | i | i
O=S(=O)(NCCOc1ccccc1)c1cccc2cccc(Cl)c12 | i | i | i | i
CCO[C@@H]1OC(C(N)=O)=C[C@H](c2ccc3c(c2)OCO3)[C@H]1CCCO | . | i | i | i

Following part
SMILES | ID4 binder | c-Myc SMM | mut p53 SMM | STAT3 binder
C[C@@H]1CN([C@H](C)CO)C(=O)Cc2cc(NC(=O)Nc3ccc(F)cc3)ccc2O[C@@H]1CN(C)S(=O)(=O)c1cccs1 | i | i | i | i
CC(NCC(O)CP(=O)(O)CC1CCCCC1)c1ccc(Cl)c(Cl)c1 (configuration not stated) | . | i | i | i
COc1ccc(NC(=O)N(C)C[C@H]2Oc3c(NC(=O)NC4CCCCC4)cccc3C(=O)N([C@H](C)CO)C[C@H]2C)cc1 | . | i | i | i
C[C@@H]1CN([C@@H](C)CO)C(=O)c2cc(NS(=O)(=O)c3cn(C)cn3)ccc2O[C@@H](C)CCCCO[C@@H]1CN(C)C | i | i | i | i
COc1ccc([C@@H]2C=C(C(=O)O)O[C@H](OCc3ccc(CO)cc3)C2)cc1 | i | i | i | i
C[C@H]1CCCCO[C@H](CN(C)C(=O)Nc2cccc3ccccc23)[C@@H](C)CN([C@@H](C)CO)C(=O)c2cc(NC(=O)c3ccncc3)ccc2O1 | i | i | i | i
CC(=O)NCCCC[C@@H]1NC(=O)[C@@H]2C[C@H](C(=O)NCc3ccc(F)cc3)[C@H](c3cccc(OCCO)c3)N2C1=O | . | i | i | i
C[C@H](CO)N1C[C@H](C)[C@H](CN(C)Cc2ccc(C(=O)O)cc2)Oc2ccc(NC(=O)Cc3cn(C)c4ccccc34)cc2CC1=O | i | i | i | i
C[C@@H]1CN([C@H](C)CO)C(=O)c2cc(NC(=O)CCCN(C)C)ccc2O[C@@H](C)CCCCO[C@H]1CN(C)C(=O)Nc1ccccc1 | i | i | i | i
C[C@@H]1CN([C@@H](C)CO)C(=O)c2cc(NC(=O)Cc3cn(C)c4ccccc34)ccc2O[C@H]1CN(C)C(=O)NC1CCCCC1 | i | i | i | i
COc1ccc(S(=O)(=O)N(C)C[C@@H]2Oc3ccc(NS(=O)(=O)c4cn(C)cn4)cc3CC(=O)N([C@@H](C)CO)C[C@H]2C)cc1 | i | i | i | i
C[C@@H]1CN([C@@H](C)CO)C(=O)c2cc(NC(=O)c3ccncc3)ccc2O[C@@H](C)CCCCO[C@@H]1CN(C)Cc1ccccc1 | . | i | i | i
C[C@@H]1CN([C@@H](C)CO)C(=O)c2cc(NC(=O)Cc3ccccc3)ccc2O[C@H]1CN(C)CC1CC1 | i | i | i | i
CNC[C@H]1Oc2ccc(NC(=O)C3CC3)cc2C(=O)N([C@H](C)CO)C[C@@H]1C | i | i | i | i
C[C@@H]1CN([C@@H](C)CO)C(=O)c2cccc(NC(=O)Nc3ccc4c(c3)OCO4)c2O[C@H]1CN(C)C(=O)NC1CCCCC1 | i | i | i | i
C[C@H]1CN([C@@H](C)CO)C(=O)c2cccc(NC(=O)Nc3cccc4ccccc34)c2O[C@H]1CN(C)C(=O)Nc1cccc2ccccc12 | i | i | i | i
C[C@@H]1CN([C@H](C)CO)C(=O)c2cc(NC(=O)CCC(F)(F)F)ccc2O[C@H]1CN(C)C(=O)Nc1ccccc1 | i | i | i | i
Cc1cc(=O)[nH]c(SCC(=O)N2CCCCC2)n1 | i | i | i | i
O=C1O[C@H](c2ccccc2)[C@H](c2ccccc2)N2[C@H]1[C@@H](C(=O)N1CCCCCCC1)[C@]1(C(=O)Nc3ccccc31)[C@H]2c1ccc(OCCO)cc1 | i | + | + | i
O=C(CSc1nnc(-c2ccco2)n1-c1cccc2ccccc12)Nc1ccc(C(=O)O)cc1 | + | i | i | i

The list goes on:
Below each SMILES: ID4 binder, c-Myc SMM, mut p53 SMM, STAT3 binder
> C[C@@H]1CN([C@@H](C)CO)C(=O)c2cc(NC(=O)C3CCCCC3)ccc2O[C@@H](C)CCCCO[C@H]1CN(C)C
    i, i, i, i
> COc1cc(C(=O)OC[C@@]2(O)CO[C@H](OC3C(CO)OC(Oc4cc(OC)c(OC)c(OC)c4)C(O)C3O)[C@@H]2O)cc(OC)c1O (some centres not stated)
    i, i, i, i
> C[C@H](CO)N1C[C@H](C)[C@@H](CN(C)S(=O)(=O)c2ccccc2)OCCCC[C@H](C)Oc2ccc(NC(=O)Nc3ccccc3)cc2C1=O
    i, i, i, i
> Cc1noc(C)c1NC(=O)Nc1cccc2c1O[C@H](CN(C)C(=O)Nc1c(C)noc1C)[C@H](C)CN([C@H](C)CO)C2=O
    i, i, i, i
> C[C@@H]1CCCCO[C@@H](CN(C)C(=O)CCC(F)(F)F)[C@H](C)CN([C@H](C)CO)C(=O)c2cc(NS(=O)(=O)c3ccccc3)ccc2O1
    i, i, i, i
> CCOC(=O)Nc1ccc(OCc2nnc3c4ccccc4c(C)nn23)cc1
    i, i, i, i
> COc1ccc(Cl)c(Cn2c(NC3CCCCC3)nc3c2c(=O)n(C)c(=O)n3C)c1
    i, i, i, i
> O=C1NC(=S)N(S(=O)(=O)c2cccc3cccnc23)C1Cc1ccccc1 (configuration not stated)
    i, i, i, i
> C[C@H]1CN([C@@H](C)CO)C(=O)c2cccc(NS(C)(=O)=O)c2O[C@@H]1CN(C)Cc1ccc(Cl)c(Cl)c1
    i, i, i, i
> C[C@@H]1CCCCO[C@H](CN(C)C(=O)Nc2cccc3ccccc23)[C@@H](C)CN([C@H](C)CO)C(=O)c2cc(N(C)C)ccc2O1
    i, i, i, i
> COc1cc(C(C)=O)ccc1OCC(O)Cn1nc(C)cc1C (configuration not stated)
    i, i, i, i
> C[C@@H]1CCCCO[C@H](CN(C)Cc2ccccc2)[C@@H](C)CN([C@@H](C)CO)C(=O)c2cc(NC(=O)CCC(F)(F)F)ccc2O1
    i, i, i, i
> N#Cc1c(NC(=O)CSc2nnc(N)s2)sc2c1CCCC2
    i, i, i, i
> C[C@@H]1CCCCO[C@@H](CN(C)C(=O)Nc2ccccc2)[C@H](C)CN([C@H](C)CO)C(=O)c2cc(NC(=O)C3CCCCC3)ccc2O1
    i, i, i, i
> COc1c(O[C@@H]2O[C@H](CO[C@H]3OC[C@](O)(CO)[C@H]3O)[C@@H](O)[C@H](O)[C@H]2O)cc2occ(-c3ccc(O)cc3)c(=O)c2c1O
    i, i, i, i

Compound activity deposited in PubChem BioAssay by Broad Institute.
